From PubChem BioAssay
PINK1 modulator – modulators of PINK1 expression. AID 624263. Potency, µM (series often up to 76.6 µM), inactives show top-dose activation (PINK1 increase), most hits filed as activators. 410,000 compounds, 0.2% hits. PINK1 immunofluorescence, high-content cytometry, 24 h; active = well fitted activation curve with a large enough effect; inconclusive = small, poorly fitted or top-dose-only effect; inactive = flat fitted curve, though single readings scatter; cell line not stated here;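 further: potency means the concentration at half of the fitted maximal effect; % of control where 0% means no effect; nearly all actives have a fitted effect of over 65% in size; a mitochondrial uncoupler was the plate control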
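PINK1 protein, normally rapidly degraded, was detected by immunofluorescence after 24 hour compound treatment of a stable cell line. Titration data (5 concentrations) came from laser-scanning cytometry, with CCCP-treated wells as controls.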
D2 potentiator – human D2 receptor positive allosteric modulation | potentiation, % (no concentration beside the values) | 360,000 compounds, 0.23% hits | DiscoveRx D2 beta-arrestin cells, luminescence, 90 min; 100% = 57 uM dopamine signal | AID 624464; active = potentiation of 50% or more; inconclusive = 30% to 50%; inactive = 30% or less;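 further: compound concentration not given in the record; tested on top of an EC20 dose of dopamine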
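PathHunter D2 cells, attached overnight at 37 deg C, received compound in DMSO plus dopamine at EC20 (50 nM final) for 90 min at 37 deg C. Beta-arrestin recruitment was read as luminescence after 1 h with detection reagent at ambient temperature.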
TRPV1 potentiator – human TRPV1 potentiation; Q8NER1; TRPV1-expressing cells, Fluo-8 calcium influx, capsaicin EC20 potentiation; host cell line not named in the record; control for the full effect not named in the record; potentiation, % at 8.33 µM; 320,000 compounds, 0.02% hits; AID 540277; active means potentiation above 80%; inconclusive means 30% to 80%; inactive means below 30%; further: 0% is about no effect
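TRPV1-expressing cells were cultured overnight at 35.5C and loaded with Fluo-8 calcium dye for 40 to 90 min at room temperature. After a 10 s baseline, compound was added and calcium influx was read kinetically for 3 min (ex 480/em 520 nm).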
D2 agonist – human D2 receptor agonism in beta-arrestin assay; P14416; DiscoveRx PathHunter D2 beta-arrestin, luminescence, 90 min; 100% = 57 uM dopamine signal; activation, % (no concentration beside the values); 360,000 compounds, 0.084% hits; AID 624465; in the data active = activation above about 40%; inconclusive = about 15% to 40%; inactive = below about 15%; further: compound concentration not given in the record; the text of the record calls up to 30% inactive
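Agonist mode: compounds alone added to overnight-plated D2 PathHunter cells for 90 min at 37 C, with 57 uM final dopamine (EC100) defining full response. Beta-arrestin recruitment detected by chemiluminescent reagent, read after 1 h at ambient temperature.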
Sfp PPTase inh – Sfp phosphopantetheinyl transferase inhibition. Q9F4F7. AID 1490. Biochemical Sfp PPTase activity, qHTS. Potency, µM, inactives show max response, negative = inhibition, most hits filed as inhibitors. 310,000 compounds, 3.5% hits; active means well fitted inhibition curve with a large enough effect; inconclusive means small, poorly fitted or top-dose-only effect, or another doubt; inactive means no such curve, though single readings can be large or run the other way;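 further: the enzyme is Sfp with the accession as filed and its product quenches rhodamine fluorescence; potency means the concentration at half of the fitted maximal effect; 0% = enzyme reaction without inhibitor and -100% = no enzyme wells; top concentration of the series not given in the record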
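Compounds were incubated with enzyme (final 15 nM) for 15 min at room temperature before substrate addition started the reaction. Fluorescence at 525 nm excitation, 598 nm emission was recorded immediately and after 30 minutes.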
Six1-Eya2 blk – Six1/Eya2 interaction inhibition. AlphaScreen GST-Six1/His-Eya2 binding, biochemical; hits give low values; control for the full effect not named in the record. activity change, % (test concentration not listed). 360,000 compounds, 0.56% hits. AID 651725; in the data active = activity change below about -65%; inconclusive = about -30% to -65%; inactive = above about -30%; further: on the % scale 0 is the no-effect control and ±100 the full control effect
Target sequence (O00167 whole entry, looked up): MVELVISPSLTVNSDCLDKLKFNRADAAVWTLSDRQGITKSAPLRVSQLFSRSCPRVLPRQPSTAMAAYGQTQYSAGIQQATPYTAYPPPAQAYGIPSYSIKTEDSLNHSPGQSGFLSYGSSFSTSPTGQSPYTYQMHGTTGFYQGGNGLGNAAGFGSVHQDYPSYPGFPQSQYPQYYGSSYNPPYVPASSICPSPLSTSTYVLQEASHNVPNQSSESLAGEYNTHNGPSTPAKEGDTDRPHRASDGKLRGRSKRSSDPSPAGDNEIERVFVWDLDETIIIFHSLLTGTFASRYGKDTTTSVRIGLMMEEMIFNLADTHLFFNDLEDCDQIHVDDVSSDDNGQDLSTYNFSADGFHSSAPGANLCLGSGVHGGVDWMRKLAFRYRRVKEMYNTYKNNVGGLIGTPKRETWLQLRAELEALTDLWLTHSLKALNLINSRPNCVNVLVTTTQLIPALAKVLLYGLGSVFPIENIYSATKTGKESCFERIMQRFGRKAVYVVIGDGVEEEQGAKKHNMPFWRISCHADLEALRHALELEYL
Target sequence (Q15475 whole entry, looked up): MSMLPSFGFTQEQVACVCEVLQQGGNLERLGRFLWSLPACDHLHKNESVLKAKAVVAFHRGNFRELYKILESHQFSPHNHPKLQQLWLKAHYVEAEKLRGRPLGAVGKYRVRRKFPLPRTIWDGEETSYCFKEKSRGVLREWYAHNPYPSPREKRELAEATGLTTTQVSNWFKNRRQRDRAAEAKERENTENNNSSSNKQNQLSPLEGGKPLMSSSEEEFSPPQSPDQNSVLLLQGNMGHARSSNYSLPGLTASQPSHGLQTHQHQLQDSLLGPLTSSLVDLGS
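AlphaScreen luminescence read after one hour at 37 °C in darkness. Pin-transferred compounds met GST-Six1 and His-Eya2 protein (5X stock 250 nM/500 nM) plus glutathione donor and Ni-chelate acceptor beads (5X, 50 ug/mL).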
CtBP-E1A blk – blocks the CtBP interaction with E1A | AlphaScreen GST-E1A/His-CtBP binding, 1536-well; hits give low values; control for the full effect not named in the record | activity change, % (test concentration not listed) | 340,000 compounds, 0.49% hits | AID 651724; in the data active means activity change below about -65%; inconclusive means about -30% to -65%; inactive means above about -30%; further: on the % scale 0 is the no-effect control and ±100 the full control effect
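In 5 uL wells, 23 nL compound meets equimolar GST-E1A and His-CtBP (5X stock 125 nM each) for 2 h, 37 °C. Beads (5X, 50 ug/mL) then 1 h, 37 °C, dark.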
Starred values were filed as active, the others as inactive; ? = inconclusive; . = not tested or not shown; [ ] = dose if it differs, or a comment.

The line under a structure holds: PINK1 modulator	D2 potentiator	TRPV1 potentiator	D2 agonist	Sfp PPTase inh	Six1-Eya2 blk	CtBP-E1A blk
- Cc1ccc(NC(=O)Nc2ccnc(-c3cccnc3)n2)cc1
  0.1%	-10	-13	0.6	-5%	?	.
- CCOC(=O)c1cccc(C(=O)Oc2ccccc2)n1
  9.6%[38.3 µM]	-14	-11	1.4	6%	5	2
- CCc1cc(-c2n[nH]c(C)c2-c2nc3ccccc3n2C)c(O)cc1O
  3.1%	5	3	2.5	18%	1	-12
- CCc1cc(C(=O)NC2CCCN(Cc3ccccc3F)C2)n(C)n1 (stereo not drawn)
  1.2%	-5	2	7.2	3%	3	0
- Cc1ccc(S(=O)(=O)N2CCOCC2)cc1C(=O)NNC(=O)c1ccoc1C
  5.8%	-10	12	-0.7	-9%	4	.
- Cc1ccc([N+](=O)[O-])c(OCCCNCC(C)O)c1 (stereo not drawn)
  -0.3%	-7	-3	-0.5	?	4	-1
- COc1ccc(CCNC(=O)Nc2ccc3c(c2)c(=O)n(C)n3CC=C(C)C)cc1OC
  2.1%	5	.	12	.	1	0
- CCCCn1c(N)c(N(Cc2ccccc2OC)C(=O)c2cc(=O)[nH]c3ccccc23)c(=O)[nH]c1=O
  -2.2%	3	-6	-0.9	.	5	0
- COc1cccc(OCCOCCOc2ccc(C)cc2[N+](=O)[O-])c1
  0.2%	3	18	0.4	-2%	19	5
- CN(C(=O)c1cccs1)c1ccc(OCC(=O)N2CCC(C(N)=O)CC2)cc1
  1.1%	-8	-6	8.9	-2%	3	-2
- CC1CCCCN1C(=S)NC(=O)c1cc(Br)ccc1Cl (stereo not drawn)
  5.8%	-4	-23	-3.3	.	4	1
- COc1ccccc1OCc1ccc(C(=O)NCC2CCCO2)cc1 (stereo not drawn)
  2.9%	-4	2	-2.3	.	0	5
- CN(C)CCN(C(=O)c1cccc(Cl)c1)c1nc2c(Cl)cccc2s1
  8.9%	-15	-5	-1.7	-7%	1	-8
- COC(=O)C(O)(CC(=O)Nc1ccccc1OC)C(F)(F)F (stereo not drawn)
  0.5%	3	21	-2.5	-3%	0	5
- O=C1CCC2CN3CCc4c([nH]c5ccccc45)C3CC2C1 (stereo not drawn)
  19%	-14	.	2.2	.	-25	5
- Cn1c(=O)cc(SCC(=O)N2CCN(C3CCCCC3)CC2)c2ccccc21
  0.1%	-5	.	-1.4	.	-10	-14
- COC(=O)c1cc(=O)[nH]c(SCc2cccc(C)c2)n1
  0.2%	0	5	-5.4	10%	2	3
- O=C1CCC/C(=N/Nc2ccc(Cl)cc2)C1
  6.2%	-6	5	0.7	20µM*	-12	-20
- Cc1nonc1C1CCCN1C(=O)c1cc(COc2cccc(C(F)(F)F)c2)on1 (stereo not drawn)
  1.3%	-10	-3	-3.3	14%	1	1
- O=C(N/C(=C\c1ccc(Br)cc1)c1nc2ccccc2[nH]1)c1ccco1
  10%	-17	-13	-4.0	18%	4	1

Quoted at random: two entries already listed.
The line under a structure holds: PINK1 modulator	D2 potentiator	TRPV1 potentiator	D2 agonist	Sfp PPTase inh	Six1-Eya2 blk	CtBP-E1A blk
- O=C1CCC2CN3CCc4c([nH]c5ccccc45)C3CC2C1 (stereo not drawn)
  19%	-14	.	2.2	.	-25	5
- COC(=O)C(O)(CC(=O)Nc1ccccc1OC)C(F)(F)F (stereo not drawn)
  0.5%	3	21	-2.5	-3%	0	5

(more compounds)
The line under a structure holds: PINK1 modulator	D2 potentiator	TRPV1 potentiator	D2 agonist	Sfp PPTase inh	Six1-Eya2 blk	CtBP-E1A blk
- O=C(C(Cc1ccccc1)n1cccc1)N1CCc2ccccc21 (stereo not drawn)
  7.0%	-6	-17	-2.9	-30%	-15	4
- Cc1ccc([C@H]2C[C@H](n3cc(COC(=O)c4ccccc4)nn3)[C@@H](O)CN2CC2CCCCC2)cc1
  10%	0	.	-5.3	.	2	3
- O=C(COC(=O)c1ccc[nH]c1=O)Nc1cc(S(=O)(=O)N2CCCCC2)ccc1Cl
  1.1%	-31	0	-1.7	6%	0	-4
- COc1ccc(NC(=O)CSc2ncn[nH]2)c([N+](=O)[O-])c1
  .	0	-8	-1.8	20%	-7	-10
- NC(=O)c1c(NC(=O)c2c(F)cccc2F)sc2c1CCN(Cc1ccccc1)C2
  17%	-7	23	-1.0	-2%	2	-1
- COCCNC(=O)c1ccc2c(c1)S(=O)(=O)c1cc(Cl)ccc1C2=O
  0.9%	11	-12	8.4	.	-6	-9
- COc1ccccc1CN1C[C@@H]2C[C@@H](c3cccc(O)c3)N3CCC[C@@]23C1=O
  -0.6%	-7	6	-2.6	-7%	0	13
- CC(=O)Nc1cc(NC(C)=O)cc(C(=O)NC(C)(C)C)c1
  2.1%	-5	3	-2.0	6%	0	4
- Cc1nc(C(=O)NNC(=O)Nc2ccccc2)cs1
  0.9%	-6	4	-6.3	-8%	2	-29
- NC1=NC(=Nc2cccc(Cl)c2)c2ccccc21
  0.2%	-21	-5	-3.6	7%	10	15
- CC1(C)CC(=O)C=C(Nc2ccc([N+](=O)[O-])cc2)C1
  0.5%	-4	-11	-1.7	4%	5	-2
- COc1ccc(-n2nc3c(c2NC(=O)C(C)Cl)CSC3)cc1 (stereo not drawn)
  0.1%	-6	4	-1.0	7%	-1	.
- COc1ccc(CN2C[C@@H](CO)O[C@@H](n3cnc4c(NC5CCC5)ncnc43)C2)cc1
  -0.5%	-2	.	-1.1	.	3	5
- Cc1ccc(CNc2ccc3c(c2)OCO3)cc1
  ?	0	19	1.7	56µM*	-14	-13
- CCN1CCN(C(=O)CN(C)S(=O)(=O)c2ccc(Cl)cc2)CC1
  ?	-13	10	-0.1	8%	-3	1
- Cc1ccc(Cn2ccc(-c3cnc(-c4ccccc4)s3)n2)cc1
  16%	-3	1	-1.8	?	40	16
- COC(=O)[C@]1(C)N[C@H](CN(C)C(=O)Nc2ccc(C)cc2)[C@@H]2C(=O)N(Cc3ccccc3)C(=O)[C@@H]21
  -0.6%	.	.	-2.5	.	9	1
- O=C(Nc1nccs1)c1ccc2c(c1)C(=O)N(Cc1cccnc1)C2=O
  -1.3%	12	-25	-3.9	3%	0	0
- CCCCn1c(N)c(N(CCOC)C(=O)c2sc3cc(F)ccc3c2Cl)c(=O)[nH]c1=O
  -1.5%	-4	21	-1.1	.	4	-3
- COc1ccc(C2/C(=C(/O)c3ccc(Cl)cc3)C(=O)C(=O)N2CCN2CCOCC2)c(OC)c1 (stereo not drawn)
  -0.6%	21	6	3.2	21%	0	1
- COC(=O)c1cc(NC(=S)N2CCN(C(=O)C3CCCO3)CC2)cc(C(=O)OC)c1 (stereo not drawn)
  0.6%	-9	3	-2.8	6%	8	.
- CCN(CC(=O)NCCCN1CCOCC1)S(=O)(=O)c1ccc(Cl)cc1
  2.7%	-10	-28	-4.8	7%	-19	-1
- O=C1C(=C(I)I)c2ccccc2-c2ccccc21
  -7.2%	17	.	11	.	-11	-13
- Cc1ccc(-n2cccc2/C=C2\C(=N)N3N=C(C(C)C)SC3=NC2=O)cc1
  -0.5%	-6	0	-3.7	-45%	-12	.
- O=C(Nc1ccccc1)c1ccc(F)cc1F
  -0.9%	-4	.	-0.4	.	0	8
- Cc1cc(C)cc(N(CC(=O)NC2CCC(C)CC2)S(=O)(=O)c2c(C)noc2C)c1 (stereo not drawn)
  5.7%	-5	-19	-6.8	14%	-5	6
- O=C(CCCN1C(=O)/C(=C/c2cccs2)SC1=S)NNC(=O)c1cccnc1
  0.2%	-13	20	-6.5	9%	-25	-14
- O=C(NCC(=O)N1CCN(Cc2ccccc2)CC1)c1ccc(Cl)cc1
  -0.3%	-11	-10	-3.5	3%	-3	5
- O=C(CCCn1c(=O)c2cccn2c2cccnc21)NCc1cccc(Br)c1
  8.8%	-2	1	-3.4	-4%	0	.
- CC(C)c1noc2ncc(C(=O)c3cc(Cl)cc(Cl)c3O)cc12
  ?	15	3	-1.9	3%	?	?
- Cc1nn(-c2ccccc2)c2c1C(c1cccs1)C(C#N)=C(N)O2 (stereo not drawn)
  9.9%	-25	12	-6.6	-10%	-12	-6
- O=C(Nc1ccncc1)c1cccs1
  -1.2%	-11	20	0.9	15%	0	7
- CCCNC(=O)C1(C)CCN(Cc2csc(-c3ccc(Cl)cc3)n2)C1 (stereo not drawn)
  6.1%	-19	.	-3.0	.	-8	-3
- CCCC1=[N+](CC)CCn2c(C)ccc21
  .	-13	7	-1.8	-7%	9	4
- COc1ccc(NS(=O)(=O)c2ccc3c(c2)n(C)c(=O)n3C)cc1
  .	1	6	3.7	0%	22	52

Part of the list above, in markdown:
| SMILES | PINK1 modulator | D2 potentiator | TRPV1 potentiator | D2 agonist | Sfp PPTase inh | Six1-Eya2 blk | CtBP-E1A blk |
| --- | --- | --- | --- | --- | --- | --- | --- |
| CCCNC(=O)C1(C)CCN(Cc2csc(-c3ccc(Cl)cc3)n2)C1 (stereo not drawn) | 6.1% | -19 | . | -3.0 | . | -8 | -3 |
| COc1ccc(NS(=O)(=O)c2ccc3c(c2)n(C)c(=O)n3C)cc1 | . | 1 | 6 | 3.7 | 0% | 22 | 52 |
| Cc1nn(-c2ccccc2)c2c1C(c1cccs1)C(C#N)=C(N)O2 (stereo not drawn) | 9.9% | -25 | 12 | -6.6 | -10% | -12 | -6 |
| O=C(Nc1ccncc1)c1cccs1 | -1.2% | -11 | 20 | 0.9 | 15% | 0 | 7 |
| CCCC1=[N+](CC)CCn2c(C)ccc21 | . | -13 | 7 | -1.8 | -7% | 9 | 4 |

Record cards, as listed above. Values in the order: PINK1 modulator | D2 potentiator | TRPV1 potentiator | D2 agonist | Sfp PPTase inh | Six1-Eya2 blk | CtBP-E1A blk
Listed for CCc1cc(-c2n[nH]c(C)c2-c2nc3ccccc3n2C)c(O)cc1O → 3.1% | 5 | 3 | 2.5 | 18% | 1 | -12
Listed for COCCNC(=O)c1ccc2c(c1)S(=O)(=O)c1cc(Cl)ccc1C2=O → 0.9% | 11 | -12 | 8.4 | . | -6 | -9
